Assay outcomes: PubChem BioAssay, Johns Hopkins Ion Channel Center
KCNQ2 block: KCNQ2 potassium channel inhibitors, primary screen, cell-based, CHO-K1, FluxOR thallium flux, B-score (AID 2156); 20 min; hits give low values; only compounds with negative scores are shown here; some inactives read as strong as hits; B-score at 10 µM; 1.1% of 310,000 active;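 active means fluorescence ratio B-score at most minus 3 library SDs, with starting brightness B-score within 2 library SDs, cut at about -5.5 in these data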
Target sequence (O88943 whole entry, looked up): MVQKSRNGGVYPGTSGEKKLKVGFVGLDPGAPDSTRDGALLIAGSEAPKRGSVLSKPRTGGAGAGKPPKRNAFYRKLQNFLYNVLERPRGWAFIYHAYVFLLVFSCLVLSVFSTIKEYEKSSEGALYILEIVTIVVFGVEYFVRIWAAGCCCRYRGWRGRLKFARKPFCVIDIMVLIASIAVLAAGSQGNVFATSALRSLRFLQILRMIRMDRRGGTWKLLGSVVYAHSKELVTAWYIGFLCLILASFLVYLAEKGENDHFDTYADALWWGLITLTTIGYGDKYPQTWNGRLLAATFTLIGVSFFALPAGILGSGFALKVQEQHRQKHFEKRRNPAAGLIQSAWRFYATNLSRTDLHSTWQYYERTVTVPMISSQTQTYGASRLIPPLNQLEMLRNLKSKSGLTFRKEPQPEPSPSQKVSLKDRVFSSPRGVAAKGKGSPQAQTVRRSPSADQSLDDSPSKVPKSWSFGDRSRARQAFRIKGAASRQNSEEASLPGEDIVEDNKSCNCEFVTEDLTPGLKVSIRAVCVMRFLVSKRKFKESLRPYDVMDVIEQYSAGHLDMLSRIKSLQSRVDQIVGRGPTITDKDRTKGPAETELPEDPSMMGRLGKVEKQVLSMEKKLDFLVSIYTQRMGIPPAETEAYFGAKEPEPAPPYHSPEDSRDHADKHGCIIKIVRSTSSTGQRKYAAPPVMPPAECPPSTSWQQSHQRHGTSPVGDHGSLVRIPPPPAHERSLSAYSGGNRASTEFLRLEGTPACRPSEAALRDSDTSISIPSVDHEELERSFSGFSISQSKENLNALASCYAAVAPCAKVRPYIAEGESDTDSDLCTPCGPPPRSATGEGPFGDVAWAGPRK
KCNQ2 block baseline: also measured in KCNQ2 block; calls as there; B-score; measured here: initial fluorescence intensity artifact check;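 brightness before thallium and not channel activity; 0 = typical well and far values either way flag optical interference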
* = called active by the depositor. Only part of the results is shown, so the mix of outcomes need not match the whole.

Screening Cc1ccc(N=c2oc3cc(O)ccc3cc2C(N)=O)cc1 returned KCNQ2 block inactive and KCNQ2 block baseline -0.01.
For CCOc1ccccc1NC(=O)Cc1coc2cc(C)ccc12 the results were KCNQ2 block inactive and KCNQ2 block baseline -1.7.
Screening CCOc1ncccc1C(=O)Nc1nc(SC)ns1 returned KCNQ2 block inactive and KCNQ2 block baseline 1.9.
COc1cc(C2NC(=S)NC(C)=C2C(=O)Nc2cc(C)cc(C)c2)ccc1O (configuration not stated) was read as KCNQ2 block inactive and KCNQ2 block baseline -0.42.
For CCc1ccccc1NC(=O)N1CCC(NC(=O)C(Cc2ccccc2)NC(C)=O)CC1 (configuration not stated) the results were KCNQ2 block inactive and KCNQ2 block baseline -0.07.
For Nc1cc(=O)[nH]c(SCC(=O)c2ccc(O)cc2O)n1 the results were KCNQ2 block inactive and KCNQ2 block baseline -0.13.
`O=C(CNC(=O)c1ccccc1)OCC(=O)N1c2ccccc2Sc2ccccc21` gave KCNQ2 block inactive and KCNQ2 block baseline 1.4.
For CSc1nc(C)cc(OCCNS(=O)(=O)c2cc(C)ccc2C)n1 the results were KCNQ2 block inactive and KCNQ2 block baseline 1.1.
For Cc1c(Cl)c([N+](=O)[O-])nn1Cc1ccc(C(=O)N/N=C\c2cccc(Br)c2)o1 the results were KCNQ2 block inactive and KCNQ2 block baseline -0.77.
Screening Cn1c(=O)[nH]c(=O)c2c1nc(NCc1ccccc1)n2CC(O)c1ccccc1 (configuration not stated) returned KCNQ2 block inactive and KCNQ2 block baseline 0.01.
`Cc1ccc(CN(C(=O)Cc2cccs2)C(C(=O)NC2CCCC2)c2ccncc2)cc1` (configuration not stated) gave KCNQ2 block inactive and KCNQ2 block baseline 0.98.
For O=NC1=C(c2c(O)[nH]c3ccccc23)CCCC1 the results were KCNQ2 block inactive and KCNQ2 block baseline 4.
For Cc1cc(/C=C(/C#N)c2cccc(Cl)c2)c(C)n1C the results were KCNQ2 block inactive and KCNQ2 block baseline 2.5.
Screening Cc1ccc(NC(=O)Cn2c(=O)c3cccn3c3ccccc32)c(Cl)c1 returned KCNQ2 block inactive and KCNQ2 block baseline 0.01.
For COc1cccc(C2CC(c3cccs3)=NN2C(=O)CSC2=NCCS2)c1OC (configuration not stated) the results were KCNQ2 block inactive and KCNQ2 block baseline 0.16.
For COc1ccc(C(=O)C2CCN(CC(=O)Nc3ccc(C)cc3)CC2)cc1 the results were KCNQ2 block inactive and KCNQ2 block baseline -3.1.
Screening Cc1cccc(NC(=O)c2sc(Cl)nc2-c2ccccc2)c1 returned KCNQ2 block inactive and KCNQ2 block baseline 0.01.
For O=C(CCN1C(=O)/C(=C\c2ccccc2)SC1=S)N1CCOCC1 the results were KCNQ2 block inactive and KCNQ2 block baseline 1.6.
For Cc1ccc(C(=O)N2CC3(C)CN(C(=O)c4ccc(C)cc4)CC(C)(C2)C3=O)cc1 the results were KCNQ2 block inactive and KCNQ2 block baseline -0.69.
Screening CN(C(=O)c1cccs1)c1ccc(OCC(=O)Nc2ccc(C(=O)O)cc2)cc1 returned KCNQ2 block inactive and KCNQ2 block baseline -0.02.

In the list so far, three have an aryl methoxy group.
COc1cc(C2NC(=S)NC(C)=C2C(=O)Nc2cc(C)cc(C)c2)ccc1O (configuration not stated) was read as KCNQ2 block inactive and KCNQ2 block baseline -0.42.
For COc1cccc(C2CC(c3cccs3)=NN2C(=O)CSC2=NCCS2)c1OC (configuration not stated) the results were KCNQ2 block inactive and KCNQ2 block baseline 0.16.
For COc1ccc(C(=O)C2CCN(CC(=O)Nc3ccc(C)cc3)CC2)cc1 the results were KCNQ2 block inactive and KCNQ2 block baseline -3.1.

2 consecutive compounds from above, for reference:
For Cc1ccc(C(=O)N2CC3(C)CN(C(=O)c4ccc(C)cc4)CC(C)(C2)C3=O)cc1 the results were KCNQ2 block inactive and KCNQ2 block baseline -0.69.
Screening CN(C(=O)c1cccs1)c1ccc(OCC(=O)Nc2ccc(C(=O)O)cc2)cc1 returned KCNQ2 block inactive and KCNQ2 block baseline -0.02.

The list continues:
`CCC(C)(C)n1nnnc1CN1CCN(c2ccc(OC)cc2)CC1` gave KCNQ2 block inactive and KCNQ2 block baseline 0.27.
For Cc1cccnc1NC(=S)NC(=O)/C=C/c1ccco1 the results were KCNQ2 block inactive and KCNQ2 block baseline -0.14.
Screening CCOC(=O)c1csc(CCNC(=O)c2oc3c(Cl)cc(C)cc3c2C)n1 returned KCNQ2 block inactive and KCNQ2 block baseline 0.47.
For CCn1c(Sc2ccc(N)cc2Cl)nc2ccccc21 the results were KCNQ2 block inactive and KCNQ2 block baseline -1.5.
For CCN(c1cccc(C)c1)S(=O)(=O)c1ccc2c(c1)CCN2C(C)=O the results were KCNQ2 block inactive and KCNQ2 block baseline 2.6.
Screening CCOC(=O)c1ccc(N2CCCCC2)c(NS(=O)(=O)c2cccc(C(F)(F)F)c2)c1 returned KCNQ2 block inactive and KCNQ2 block baseline -1.3.
For Cc1cc(C(=O)N/N=C/c2ccc(O)c([N+](=O)[O-])c2)c(C)n1-c1ccc(F)cc1 the results were KCNQ2 block inactive and KCNQ2 block baseline -2.3.
Screening CSCCC(NS(=O)(=O)c1ccc2c(c1)oc(=O)n2C)C(=O)NC1CCCCC1 (configuration not stated) returned KCNQ2 block inactive and KCNQ2 block baseline -2.8.
`O=C(O)COc1ccccc1/C=C1\SC(=S)N(c2cccnc2)C1=O` gave KCNQ2 block inactive and KCNQ2 block baseline 0.98.
For Cc1c(C)c2ccc(OCC(=O)NCCCn3ccnc3)cc2oc1=O the results were KCNQ2 block inactive and KCNQ2 block baseline 2.1.
CCCCNC(=O)CNC(=S)N(Cc1ccccc1)Cc1cccs1 was read as KCNQ2 block inactive and KCNQ2 block baseline -1.7.
`CCCCCCCCc1nnc(N)s1` gave KCNQ2 block inactive and KCNQ2 block baseline -1.1.
`O=C(c1ccccc1)N1CCCC(c2nc3c(nnn3Cc3ccccc3)c(=O)[nH]2)C1` (configuration not stated) gave KCNQ2 block inactive and KCNQ2 block baseline 2.9.
Screening c1nc(Nc2ccc(N3CCOCC3)cc2)c2ccsc2n1 returned KCNQ2 block inactive and KCNQ2 block baseline -0.71.
For O=C(Nc1ccc(F)cc1)Nc1sccc1-c1nc2ccccc2s1 the results were KCNQ2 block inactive and KCNQ2 block baseline 0.79.
S=C(Nc1cccc(Cl)c1)N(CCCN1CCCC1)Cc1cccn1Cc1ccc(Cl)cc1 was read as KCNQ2 block inactive and KCNQ2 block baseline 2.5.
For O=C(NCCC1=CCCCC1)c1cc(-c2ccccn2)nc2ccccc12 the results were KCNQ2 block inactive and KCNQ2 block baseline 2.
Screening Cc1ccc(S(=O)(=O)NCc2ccccc2C)cc1 returned KCNQ2 block inactive and KCNQ2 block baseline 1.8.
`CCN(CC)CCCNC(=O)C1c2cc(OC)c(OC)cc2C(=O)N(C)C1c1cccs1` (configuration not stated) gave KCNQ2 block inactive and KCNQ2 block baseline -0.4.
For Cn1cc(C(=O)C(=O)N2CCN(c3ccccc3)CC2)c2ccccc21 the results were KCNQ2 block inactive and KCNQ2 block baseline 0.85.

Random excerpt: five entries already listed, in no set order.
CCCCNC(=O)CNC(=S)N(Cc1ccccc1)Cc1cccs1 was read as KCNQ2 block inactive and KCNQ2 block baseline -1.7.
Screening CCOC(=O)c1ccc(N2CCCCC2)c(NS(=O)(=O)c2cccc(C(F)(F)F)c2)c1 returned KCNQ2 block inactive and KCNQ2 block baseline -1.3.
Screening CSCCC(NS(=O)(=O)c1ccc2c(c1)oc(=O)n2C)C(=O)NC1CCCCC1 (configuration not stated) returned KCNQ2 block inactive and KCNQ2 block baseline -2.8.
For CCn1c(Sc2ccc(N)cc2Cl)nc2ccccc21 the results were KCNQ2 block inactive and KCNQ2 block baseline -1.5.
`CCN(CC)CCCNC(=O)C1c2cc(OC)c(OC)cc2C(=O)N(C)C1c1cccs1` (configuration not stated) gave KCNQ2 block inactive and KCNQ2 block baseline -0.4.

Going on with the list.
Screening COCc1[nH][nH]c(=O)c1/C=N/N1CCOCC1 returned KCNQ2 block inactive and KCNQ2 block baseline 0.64.
Screening CCN(CC(=O)Nc1c(F)cccc1F)C(=O)CCOc1ccccc1 returned KCNQ2 block inactive and KCNQ2 block baseline 0.82.
For CN1CCN(Cc2nc(Cc3ccccc3)no2)CC1c1ccccc1 (configuration not stated) the results were KCNQ2 block inactive and KCNQ2 block baseline -0.23.
O=S(=O)(Nc1cccc(-c2cn3cccnc3n2)c1)c1ccccc1 was read as KCNQ2 block inactive and KCNQ2 block baseline -0.01.
CCc1cc2c(nc1CC)CCN(CC/C(C)=N/O[C@@H](C)c1cc(-c3c(C)cc(C)cc3C)no1)C2 was read as KCNQ2 block -10* and KCNQ2 block baseline -0.81*.
Screening CCc1ccc(C(=O)COC(=O)[C@@H](NC(N)=O)[C@@H](C)CC)cc1 returned KCNQ2 block inactive and KCNQ2 block baseline -1.8.
Screening CC(=O)N1c2ccc(S(=O)(=O)N3CCC(C(=O)Nc4cc(C)cc(C)c4)CC3)cc2CC1C (configuration not stated) returned KCNQ2 block inactive and KCNQ2 block baseline -0.14.
For COc1ccc(C2=NN(c3ccc(C=O)cc3)C(c3ccccc3)C2)cc1 (configuration not stated) the results were KCNQ2 block inactive and KCNQ2 block baseline -0.81.
CC(=O)NCCc1nc2ccccc2n1CCOc1ccccc1C was read as KCNQ2 block inactive and KCNQ2 block baseline 0.2.
For COc1cccc(CC(=O)NCC2COc3ccccc3O2)c1OC (configuration not stated) the results were KCNQ2 block inactive and KCNQ2 block baseline -0.37.
Screening COC(=O)c1sc(=S)n(-c2ccccc2)c1N returned KCNQ2 block inactive and KCNQ2 block baseline -0.68.
Screening CC(C)(C)OC(=O)NCCc1nnc(SCC(=O)c2ccc(Cl)cc2)o1 returned KCNQ2 block inactive and KCNQ2 block baseline -0.48.
For CCOC(=O)C1(Cc2ccc(Cl)cc2)CCN(C(=O)c2cc(C)nc(C)n2)CC1 the results were KCNQ2 block inactive and KCNQ2 block baseline 2.
`Nc1ncc(Br)cc1S(=O)(=O)NCCC(=O)NCCc1ccccc1` gave KCNQ2 block inactive and KCNQ2 block baseline 3.
O=C(Nc1ccc(NC(=S)NC(=O)c2ccco2)cc1)c1ccccc1 was read as KCNQ2 block inactive and KCNQ2 block baseline -0.03.
Screening Cc1cc(SCC(=O)c2ccccc2)n2nc(C)nc2n1 returned KCNQ2 block inactive and KCNQ2 block baseline -1.1.
Cc1ccc(C(=O)Nc2cc3ccccc3oc2=O)cc1 was read as KCNQ2 block inactive and KCNQ2 block baseline 0.66.
`COc1cc(C(=S)N2CCCC2)cc(Cl)c1OCC(=O)Nc1ccc(C)cc1C` gave KCNQ2 block inactive and KCNQ2 block baseline -0.14.
For CC(=O)NS(=O)(=O)c1ccc(NC(=S)NC(=O)CC(C)C)cc1 the results were KCNQ2 block inactive and KCNQ2 block baseline -1.9.
`Nc1nc(NS(=O)(=O)c2ccc(Cl)cc2)nn1-c1ccccc1` gave KCNQ2 block inactive and KCNQ2 block baseline -0.56.
`Cc1onc(-c2ccccc2Cl)c1C(O)c1ccc(F)cc1` (configuration not stated) gave KCNQ2 block inactive and KCNQ2 block baseline -0.01.
For COc1ccc(C(CNC(=O)c2cc(C)on2)N(C)C)cc1 (configuration not stated) the results were KCNQ2 block inactive and KCNQ2 block baseline 0.09.
`CCn1c(=O)cc(OCC(=O)NCCC(C)C)c2ccccc21` gave KCNQ2 block inactive and KCNQ2 block baseline 1.1.
CC1CCCN(CCOCCOc2ccc(Cl)cc2Br)C1 (configuration not stated) was read as KCNQ2 block inactive and KCNQ2 block baseline -0.87.
For COCCCn1c(=NC(=O)c2ccccc2)c(C#N)cc2c(=O)n3cccc(C)c3nc21 the results were KCNQ2 block inactive and KCNQ2 block baseline 17.
Screening O=C(OCc1cccc([N+](=O)[O-])c1)c1cc(=O)[nH]c2ccccc12 returned KCNQ2 block inactive and KCNQ2 block baseline 0.25.
Cc1c(C(=O)NCCC2=CCCCC2)oc2ccc(S(=O)(=O)N3CCC4(CC3)OCCO4)cc12 was read as KCNQ2 block inactive and KCNQ2 block baseline 0.47.
`CC1CCCCN1CCn1cnc2c([nH]c3ccccc32)c1=O` (configuration not stated) gave KCNQ2 block inactive and KCNQ2 block baseline -1.6.
For Cc1ccccc1OCC(=O)OCC(=O)NCc1cccs1 the results were KCNQ2 block inactive and KCNQ2 block baseline 1.5.
O=C(Nc1ccccc1)c1nccn1Cc1ccc(F)cc1 was read as KCNQ2 block inactive and KCNQ2 block baseline 0.73.
Screening COc1cc2nc(CN3C(=O)c4ccccc4C3=O)oc(=O)c2cc1OC returned KCNQ2 block inactive and KCNQ2 block baseline 0.18.
Screening CN1/C(=C/C(=S)NC(=O)C2CCC2)C(C)(C)c2ccccc21 returned KCNQ2 block inactive and KCNQ2 block baseline 2.1.
For COc1ccccc1CNS(=O)(=O)c1cc2c3c(c1)CCC(=O)N3CCC2 the results were KCNQ2 block inactive and KCNQ2 block baseline 2.4.
CC(=O)c1ccc(N2CCN(S(=O)(=O)c3cn(C)cn3)CC2)cc1 was read as KCNQ2 block inactive and KCNQ2 block baseline -0.18.
COc1cc(C(=O)NCC(=O)N/N=C(/C)c2cccs2)cc(OC)c1OC was read as KCNQ2 block inactive and KCNQ2 block baseline 0.35.
Cc1ccc(Nc2c(-c3ccccn3)nc3cccc(C)n23)cc1 was read as KCNQ2 block inactive and KCNQ2 block baseline -0.87.
Cc1cccc(-c2noc(Cc3ccccc3)n2)c1 was read as KCNQ2 block inactive and KCNQ2 block baseline 0.02.
O=C(CSc1ccc(-c2ccc(F)cc2)nn1)NCC1CCCO1 (configuration not stated) was read as KCNQ2 block inactive and KCNQ2 block baseline 0.07.
Screening CCc1ccccc1NC(=O)c1ccc([N+](=O)[O-])s1 returned KCNQ2 block inactive and KCNQ2 block baseline -1.3.
CCc1ccc(C2C(C#N)=C(N)N(N(C)C)C3=C2C(=O)CCC3)s1 (configuration not stated) was read as KCNQ2 block inactive and KCNQ2 block baseline 0.65.
Screening O=C(CSc1n[nH]c(-c2ccco2)n1)Nc1ccc(F)cc1 returned KCNQ2 block inactive and KCNQ2 block baseline -0.07.
CC1(O)C(=O)c2ccccc2N(c2ccccc2)C1=O (configuration not stated) was read as KCNQ2 block inactive and KCNQ2 block baseline 0.43.
